# AID504770: growth inhibition of E. coli YBA685, primary screen, V. cholerae RctB inhibitors; E. coli YBA685 rctB-dependent plasmid, OD600 growth, 3 h; active compounds read low; z-score (concentration not given with the values); 0.27% of 130,000 active; AID 504770, 2011;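 active means z-score under -2 on both plates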;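 further: wells of about 30 µL received 100 nL stock; score is relative to mean and SD of the test wells; the first replicate is given; strong numbers were not always called active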
# Ba CapD inh: Bacillus anthracis CapD inhibitors, primary screen, biochemical, fluorescence intensity. AID 492967, 2010. 0.23% of 140,000 active. purified CapD enzyme, fluorescence intensity read-out; active compounds read low; some hits fall short of the stated cut. z-score (concentration not given with the values);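 active means z-score under -4 in either of two replicates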;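 further: stock transfer was 100 nL into about 40 µL; score is relative to mean and spread of the plate; one replicate is shown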
# The depositor's hits bear a star; . = not tested or not shown. Hits appear at their usual frequency, and some 0.39% of all compounds hit somewhere here.
# Results follow in this order: AID504770 | Ba CapD inh
COc1ccc(S(=O)(=O)c2c(N)n(CC3CCCO3)c3nc4ccccc4nc23)cc1 (stereo unspecified)
  -0.1 | .
COc1ccc(/C=C2/C(=O)C(C(C)C)=CCC2C)cc1 (stereo unspecified)
  0.55 | -0.4
CC(OC(=O)Cn1ccc(=O)[nH]c1=O)C(=O)c1ccc(C(C)(C)C)cc1 (stereo unspecified)
  -0.45 | .
C=CCn1c(Sc2ncnc3sccc23)nc2ccccc2c1=O
  -0.45 | .
O=C(CSCc1ccccc1)N1CCN(S(=O)(=O)c2cccs2)CC1
  1.6 | .
CC1=Cc2nc3ccccc3n2C2(C(F)(F)F)OC(c3cccs3)=NN12 (stereo unspecified)
  -0.1 | .
CCOC(=O)C1=C(C)NC(=O)NC1c1cn(-c2ccccc2)nc1-c1ccc(Br)cc1 (stereo unspecified)
  . | -0.045
NC1=NC(=O)CC(C(=O)NCc2ccccc2)S1 (stereo unspecified)
  -0.6 | -0.93
COc1ccc(NC(=O)c2cccc(OS(=O)(=O)N(C)C)c2)cc1
  . | -0.19
NC(=O)c1c(-c2ccc(Cl)cc2)csc1NC(=O)CCCc1ccccc1
  0.4 | -0.13
c1ccc2[nH]c(C3CC3)nc2c1
  -1.4 | -0.025
O=c1[nH]c2ccc(Cl)cc2c(-c2ccccc2)c1N1CCN(c2ccccn2)CC1
  -0.45 | 0.095
CCOc1cccc2c1OC(c1ccc(SC)cc1)N1N=C(c3cccs3)CC21 (stereo unspecified)
  . | 1
O=c1c2ccccc2c(C=Nc2cccc(C(F)(F)F)c2)c(O)n1-c1ccccc1
  -0.05 | 12
CCN1CCCC1CNC(=O)C1c2cc(OC)c(OC)cc2C(=O)N(C)C1c1cccnc1 (stereo unspecified)
  -1.1 | -0.89
FC(F)(F)c1ccnc(NCc2ccc3c(c2)OCO3)n1
  1.4 | 0.36
Cc1cc2c(cc1C)N(C(=O)c1cccc(F)c1)C(C)(C)c1ssc(=S)c1-2
  . | -0.04
Cc1ccc(C(=O)O/N=C(/c2nonc2N)N(C)C)cc1
  0.2 | .
CN1CCCN(C(=O)c2cc(S(=O)(=O)N(C)c3ccc(F)cc3)ccc2Cl)CC1
  -0.45 | .
O=S(=O)(NCCSc1nnc(-c2ccco2)n1-c1ccccc1)c1ccccc1
  2.2 | 0.045
CC(C)(C)OC(=O)N(CCOC(=O)NNC(=O)c1nccc2ccccc12)Cc1cc2ccccc2c2ccccc12
  . | -0.59
O=C(O)Cc1c[nH][nH]c1=O
  -0.4 | .
CC(C)(C)C(=O)Nc1c(Cl)cccc1OC(F)(F)F
  0.9 | 0.73
CC1CCN(C(=O)c2cc3c(=O)n4ccccc4nc3n2C)CC1
  0.05 | .
COc1ccc(/C=N/N2C(=O)c3ccccc3C2=O)cc1OC
  0 | 1
COc1cc(CN2CCC(C(=O)N3CCN(c4ccccc4F)CC3)CC2)cc(OC)c1O
  0.8 | -0.09
c1ccc(CC2CCN(Cn3cnc4ccccc43)CC2)cc1
  -2.2 | .
COc1ccc(C=Nc2ccc(OC)cc2)cc1
  . | 0.57
CC(C)N(Cc1ccccc1)C(=O)c1cccs1
  -1.2 | 0.55
N/C(=N\O)c1ccc2nonc2c1
  0.2 | -0.35

# Continued; it opens with the 3 that closed the last part.
# Results follow in this order: AID504770 | Ba CapD inh
COc1ccc(C=Nc2ccc(OC)cc2)cc1
  . | 0.57
CC(C)N(Cc1ccccc1)C(=O)c1cccs1
  -1.2 | 0.55
N/C(=N\O)c1ccc2nonc2c1
  0.2 | -0.35
CC1=CC(C)(C)Nc2ccccc21
  0.9 | .
O=C1c2ccccc2NC(c2cccc(Br)c2)N1c1ccc(I)cc1 (stereo unspecified)
  . | 28
O=S(=O)(NCC1CC1)c1cc(Cl)cc(Cl)c1
  . | 0.7
CC(C)NC(=O)CSc1nncn1-c1ccccc1
  -1.1 | .
COc1ccc(C2Sc3ccccc3NC3=C2C(=O)c2ccccc23)cc1 (stereo unspecified)
  . | -0.14
O=C(NCCc1ccccc1)Nc1c[nH]c(=O)[nH]c1=O
  -0.65 | -0.17
CCC1c2ccc(C)n2CCN1C(=O)NC12CC3CC(CC(C3)C1)C2 (stereo unspecified)
  1.6 | 6.6
CC1=C(C#N)C(c2ccc(CN3C(=O)c4ccccc4C3=O)o2)C2=C(CCCC2=O)N1 (stereo unspecified)
  1.3 | 1.8
CC(C)(C)C(=O)OCC(N)=S
  . | -0.17
COc1cc(/C=C2/N=C(c3ccc(Cl)c([N+](=O)[O-])c3)OC2=O)cc(OC)c1OC
  . | 0.85
CCOC(=O)c1c(C)n(Cc2ccccc2)c2ccc(OCC(O)CN3CCOCC3)cc12 (stereo unspecified)
  . | 0.085
O=C(COC(=O)c1cccc(NC(=O)C(F)(F)F)c1)c1ccccc1
  -0.9 | -0.22
O=C(NCCc1ccccc1)c1cc(N2CCOCC2)nc(N2CCOCC2)n1
  . | 0.95
CC1(C)CC(=O)C=C(N)C1
  1.4 | .
COC(=O)c1cc(OC)c(OC)cc1NS(=O)(=O)c1ccc(F)c(F)c1
  . | -0.39
Nc1ccc(Br)cc1-c1nc2ccccc2s1
  0.45 | 1.4
Cc1ccc2c(c1)nc(NCCCO)n2C
  -0.8 | 0.52
CNC(=O)COc1ccc(S(=O)(=O)Nc2ccccc2)cc1
  -0.25 | 0.075
CCNC(=O)NCCSCc1nc(OC)cc(OC)n1
  . | -0.03
O=C(CSc1ccccc1)NCc1ccco1
  0.7 | 0.055
CN(C)c1cccc(C(=O)OCC(=O)NC2CCCCC2)c1
  -0.7 | 0.5
O=C(NC1CC1)c1cccc(NC(=O)C2Cc3ccccc3O2)c1 (stereo unspecified)
  -0.65 | .
CCOC(=O)C1CCN(Cn2nc3cc(C)c4ccccc4n3c2=S)CC1
  -0.7 | .
CN1C(=O)N(c2nnc(C(C)(C)C)s2)C(=O)C1c1ccccc1 (stereo unspecified)
  -1 | -0.07
Cc1cccc(NC2CS(=O)(=O)CC2O)c1 (stereo unspecified)
  0 | 13
Oc1c(C(c2ccccc2)N2CCCC2)sc2nc(-c3ccco3)nn12 (stereo unspecified)
  1.6 | .
Cc1nc(SCC(=O)NCC2CCCO2)nc(C)c1C (stereo unspecified)
  -0.9 | .
Cc1ccc2[nH]c3c(c2c1)CCN(C)C3=O
  . | 4.3
O=C(Nc1ccc(-n2cc(-c3cnccn3)cn2)cc1)c1c(F)cccc1F
  . | 3.6
CC(C)(C)c1cs/c(=N/c2ccccn2)n1-c1ccc(Cl)cc1
  0.35 | -0.09

# Two successive compounds out of the list so far, for reference:
# Results follow in this order: AID504770 | Ba CapD inh
Cc1ccc2[nH]c3c(c2c1)CCN(C)C3=O
  . | 4.3
O=C(Nc1ccc(-n2cc(-c3cnccn3)cn2)cc1)c1c(F)cccc1F
  . | 3.6

# Additional structures.
# Results follow in this order: AID504770 | Ba CapD inh
Cc1cc2c(c(=O)o1)C1(C(=O)N(CC(=O)O)c3ccccc31)C(C#N)=C(N)O2 (stereo unspecified)
  -0.7 | 0.43
CC1CCCN(c2ccc(N)cc2)C1 (stereo unspecified)
  -0.85 | .
COc1ccc(NC(=O)CN(C)C)cc1
  -0.1 | 1.8
O=C(O)COc1ccccc1/C=C1/C(=O)Nc2ccc(Cl)cc21
  -0.3 | -1.4
COc1ccc(C2NC(=O)NC(C)=C2C(=O)OCC2CCCO2)cc1OCc1ccccc1 (stereo unspecified)
  . | -0.08
N/C(=N\C(=O)Nc1ccccc1)N1CCN(Cc2ccccc2)CC1
  1.4 | -1.1
Clc1ccc(OCCCc2nc(-c3cccnc3)n[nH]2)c(Cl)c1
  -0.35 | .
O=C1/C(=C/c2ccccc2)Oc2c1ccc(O)c2CN1CCCC1
  0.9 | .
CCOC(=O)N1CCN(c2nc(-c3cccnc3)nc3ccccc23)CC1
  0.5 | .
OCCCc1nc2ccc(C(F)(F)F)cc2[nH]1
  . | 4.3
COc1cccc(N2CCN(C(=O)c3cnc(SC)nc3C)CC2)c1
  0.3 | -0.33
O=C(N/C(=C/c1ccccc1)C(=O)N1CCCCCC1)c1ccccc1
  1.3 | 0.07
CCN(CC)S(=O)(=O)c1ccc(-c2cc(C(=O)OC)sc2C(F)(F)F)cc1
  0.25 | 0.47
CNC(=O)COC(=O)c1ccc2c(c1)NC(=O)C1CCCN21 (stereo unspecified)
  -0.1 | .
Cc1ccc(C(=O)NCC2CCCO2)cc1 (stereo unspecified)
  0.7 | .
CCOC(=O)C1CCN(C(C)=C2C(=O)c3ccccc3C2=O)CC1
  1.5 | -0.83
O=C(c1ccccc1F)N(Cc1ccccc1)C1C=CS(=O)(=O)C1 (stereo unspecified)
  -0.85 | .
FC(F)(F)c1cc(Oc2ccc(-n3cccc3)cc2)cc(C(F)(F)F)c1
  -0.6 | 0.3
CC1CCc2oc3ccc(NS(=O)(=O)c4ccccc4)cc3c2C1 (stereo unspecified)
  . | 0.03
COc1cc(OC)c(NC(=O)CSc2nc3[nH]ncc3c(=O)n2-c2cccc(C(F)(F)F)c2)cc1Cl
  . | -0.14
CCOC(=O)CSc1nc2ccccc2n1C(=O)Oc1ccccc1
  0.15 | -0.2
CC(OCc1ccccc1)C(NS(=O)(=O)c1ccc(Br)cc1)C(N)=O (stereo unspecified)
  . | 0.22
O=C(N/N=C/c1ccco1)C1CN(S(=O)(=O)c2ccccc2)CCN1S(=O)(=O)c1ccccc1 (stereo unspecified)
  -1.2 | .
COc1ccc(N2CCN(CC(O)c3ccccc3)CC2)cc1 (stereo unspecified)
  -2.4 | .
O=C(Nc1ccccc1)c1cc(S(=O)(=O)Nc2cccnc2)cs1
  -0.45 | -0.14
Cc1nc2ccccc2n1C1CCN(C(=O)NC2CCCCC2)CC1
  0.1 | .
COc1ccccc1N1CCN(C(=O)c2nc(-n3nc(C)cc3C)ccc2Cl)CC1
  -0.85 | .
COC(=O)C1=C(C(=O)OC)SC(=C2C(=S)C(C)(C)N(C(=O)c3ccc(-c4ccccc4)cc3)c3cc(C)c(C)cc32)S1
  . | -0.6
CCC(=O)Nc1ccc(C(=O)N/N=C/c2ccc(C#N)cc2)cc1
  0.1 | -0.17
CC1CCN(C(=O)CSc2n[nH]c(N)n2)CC1
  . | -0.29

# Retrieved by structure from the list above:
# Results follow in this order: AID504770 | Ba CapD inh
Cc1cc2c(c(=O)o1)C1(C(=O)N(CC(=O)O)c3ccccc31)C(C#N)=C(N)O2 (stereo unspecified)
  -0.7 | 0.43
Cc1cc2c(cc1C)N(C(=O)c1cccc(F)c1)C(C)(C)c1ssc(=S)c1-2
  . | -0.04
Cc1ccc(C(=O)O/N=C(/c2nonc2N)N(C)C)cc1
  0.2 | .

# More results follow:
# Results follow in this order: AID504770 | Ba CapD inh
COc1cccc(-c2nc(SCC(=O)N3CCCC3)n3[nH]c(=O)cc3n2)c1
  -0.65 | -0.7
CN(C)c1ccc(C(=NC(=O)C2CCC2)c2ccc(N(C)C)cc2)cc1
  -0.65 | .
CC1(C)CC(N2N=C(N)CC2=O)CCO1 (stereo unspecified)
  -0.05 | -0.34
CC(=O)Nc1ccc2c(c1)OCO2
  -0.6 | 0.98
CC(C)N1CCC2(CC1)NC(=O)c1ccccc1O2
  -0.6 | 0.53
CCn1c(N)c(C(=O)COC(=O)CCc2nc3ccccc3c(=O)[nH]2)c(=O)[nH]c1=O
  1.2 | .
O=C(NC12CC3CC(CC(C3)C1)C2)c1cccnc1Cl
  -0.75 | 0.095
O=C(C1CCN(S(=O)(=O)c2ccc3c(c2)OCCO3)CC1)N1CCN(c2nc3ccccc3s2)CC1
  0.9 | .
Cc1ccc(/C=N/NC(=O)c2ccc(OCc3c(F)cccc3Cl)cc2)cc1
  . | -0.09
Cc1cc(C)c2c(N)c(C#N)sc2n1
  0.65 | 50
CCN1CCN(Cc2ccc(Cl)cc2)CC1
  0.3 | 0.14
COc1ccc(N2CCN(C(=O)c3ccc(=O)[nH]c3)CC2)cc1
  1.5 | .
CC(=O)Nc1nnc(SCc2ccc(C(F)(F)F)cc2)s1
  -0.85 | 0.05
Cc1ccc(-c2nc(N3CCOCC3)nc3ccccc23)cc1
  -0.15 | 0.53
COc1ccc(NC(=O)CS(=O)(=O)Cc2ccc(Cl)cc2)cc1
  . | 0.05
COc1ccccc1N=c1sc(C2=c3ccccc3=NC2=O)c(O)n1-c1ccccc1OC
  . | -0.25
Cc1cc(C)c2c(-n3cccc3)nn(Cc3ccc(C(=O)NC4CC4)cc3)c2n1
  0.7 | 29
O=S1(=O)CC2(N3CCOCC3)CCCCC21 (stereo unspecified)
  -0.7 | .
CC1=C(C(=O)OCCc2ccccc2)C(c2cccc([N+](=O)[O-])c2)C2=C(CC(c3cccs3)CC2=O)N1 (stereo unspecified)
  . | -0.54
COc1cccc(-n2cc(C(=O)N3CC=C(c4ccccc4)CC3)c3ccccc3c2=O)c1
  0.1 | 11
COc1ccc(NC(=S)NCCc2c[nH]c3ccccc23)c(OC)c1
  0.1 | -0.93
O=C(CCSCCc1ccccn1)Nc1cc(-c2cccc(Cl)c2)no1
  0.2 | 0.025
C=CCOc1ccccc1C=Nc1c(C)n(C)n(-c2ccccc2)c1=O
  . | -0.48
BrCCN1CCn2c3c(c4cc(C5CCCCC5)ccc42)CCCC31 (stereo unspecified)
  . | 0.53
CCCCn1c2ccccc2n2cc(-c3ccc4c(c3)OCO4)nc12
  3.2 | 45
CC(Oc1ccc(C#N)cc1)C(=O)Nc1cc(Cl)ccc1-n1cncn1 (stereo unspecified)
  2.8 | .
Cc1ccc(/C=C/C2=NC(=C\c3ccc(C)o3)/C(=O)O2)cc1
  -0.6 | 2.6
COc1cc(-c2nc3ccccc3c(=O)n2NC(=O)/C=C/c2ccccc2Cl)cc(OC)c1OC
  . | -0.18
COc1cccc(Cl)c1-c1nc(N)nc(N)n1
  . | 0.14
O=C(Nc1cccnc1)C1CC(c2ccccc2O)=NO1 (stereo unspecified)
  -0.15 | .

# Source: PubChem
